2A firefly – FMDV 2A StopGo reporter, firefly signal | hit rate 0.23% among 120,000 | HEK cells with a luciferase reporter of 2A StopGo recoding | Potency, µM (series often up to 57.5 µM), for inactives: top-dose signal change, negative = less light; active = well fitted falling curve with a large enough effect; inconclusive = small, poorly fitted or top-dose-only effect; inactive = no such curve, though single readings can be large or run the other way; note: nearly all actives have a fitted effect of over 60% in size; overnight with compound
2A Renilla – FMDV 2A StopGo reporter, Renilla signal. Potency, µM (doses to about 57.5 µM), without a hit: top-dose signal change, negative = less light. hit rate 0.32% among 120,000. HEK cells with a luciferase reporter of 2A StopGo recoding; active means well fitted falling curve with a large enough effect; inconclusive means small, poorly fitted or top-dose-only effect; inactive means no such curve, though single readings can be large or run the other way; note: nearly all actives have a fitted effect of over 55% in size; overnight with compound
The depositor's hits bear a star; ? = inconclusive; & = joins results of further samples; [ ] = another dose, or the depositor's remark. % is set by controls: 0 for no effect and ±100 for the full control effect; potency is the fitted concentration of half-maximal effect.

SMILES | 2A firefly | 2A Renilla
CCN(C(=O)c1nn(-c2ccc(OC)c(Cl)c2)c(=O)c2c1c1ccccc1n2C)c1cccc(C(F)(F)F)c1 | -18.7% | -9.3%
O=C(CSc1nc(-c2ccccc2)no1)N1CCN(c2ccccc2)CC1 | -13.1% | -11.6%
Cc1ccc(C)c(-c2cc(C(=O)NC3CC3)c3ccccc3n2)c1 | 26.3% | 0.0%
COc1ccc2c(c1)CC(C(=O)Nc1cc(OC)c(OC)c(OC)c1)CO2 (stereo not drawn) | -16.1% | 1.8%
COc1cccc(CNC(=O)CN2C(=O)N(c3c(C)cccc3C)S(=O)(=O)c3ccccc32)c1OC | 11.9% | 21.8%
O=c1c2cnn(-c3ccc(F)cc3)c2ncn1CC(O)COc1ccc(Cl)cc1Cl (stereo not drawn) | ? | ?
CC(OC(=O)CSc1nc2ccccc2o1)C(=O)NC1(C#N)CCCCC1 (stereo not drawn) | 11.6% | 5.0%
CC(Sc1nc(N)cc(N)n1)C(=O)c1ccccc1 (stereo not drawn) | 19.5% | 2.2%
Cc1cc(C)c(S(=O)(=O)n2cnc3ccccc32)cc1C | ? | ?
O=C(NCc1ccccc1)c1cccn1-c1nnc(N2CCCC2)s1 | -8.3% | ?

The results go on.
SMILES | 2A firefly | 2A Renilla
Cc1cccc(Cn2cc(S(=O)(=O)c3ccccc3)c(=O)c3cc(F)c(N4CCOCC4)cc32)c1 | -20.6% | 6.4%
CCCCCn1c(N2CCN(c3cccc(Cl)c3)CC2)nc2c1c(=O)[nH]c(=O)n2C | 5.1% | -1.1%
COC(=O)[C@]12C[C@H](CC(=O)NCc3cccs3)C(=O)N(CCc3ccc(OC)c(OC)c3)C1=C[C@H](COCc1ccccc1)O[C@@H]2C | 7.7% | 0.0%
O=S(=O)(c1cccc(Cl)c1)n1c(/C=C/c2ccccc2Cl)nc2ccccc21 | -38.1% | -7.0%
COc1ccc2cc(C(=O)NC(CC(C)C)C(=O)O)ccc2c1 (stereo not drawn) | 19.0% | 25.9%
NC(=O)c1ncn([C@@H]2O[C@H](CO)[C@@H](O)[C@H]2O)n1 | -15.3% | -29.4%
CCCCc1noc(CN2CCc3cc(OC)c(OC)cc3C2CC(=O)OC)n1 (stereo not drawn) | -10.9% | -10.8%
Cc1nn(CCCC(=O)NCc2ccccc2)c(=O)c2cc3sccc3n12 | -18.8% | -11.4%
Cc1cc(C)n(-c2nc3ccccc3nc2N2CCN(C(=O)c3ccccc3Br)CC2)n1 | -19.6% | -13.8%
COc1ccc(NC(=O)C2=CC(c3ccc4c(c3)OCO4)=NS(=O)(=O)N2C)cc1 | 10.4% | 11.3%

Next compounds
SMILES | 2A firefly | 2A Renilla
CC1(C)CC(NC(=S)Nc2ccccc2)CC(C)(CNC(=S)Nc2ccccc2)C1 (stereo not drawn) | -19.8% | 121.7%[activator]
O=C(OCC(=O)N1CCC(c2ccccc2)=N1)c1cc2c(s1)CCCC2 | -6.2% | -17.4%
COc1ccc(CNC(=O)CCc2nc3cccnc3n2Cc2ccc(OC)cc2)cc1 | 7.0% | 13.8%
O=[N+]([O-])c1cc(S(=O)(=O)Nc2ccc(Cl)cc2)ccc1N/N=C/c1ccccc1C(F)(F)F | 15.4% | 114.1%[activator]
COc1ccc(S(=O)(=O)c2c(Nc3ccc(C)cc3)sc(C(=O)c3ccc(C)cc3)c2N)cc1 | -18.2% | -15.3%
COc1ccc(C)cc1CN(C)C(=O)C1CCN(C(=O)c2cccc3ccccc23)CC1 | -4.1% | 138.2%[activator]
COc1cccc(NC(=O)N2CCN(C(=O)c3nsc4ccccc34)CC2)c1 | 24.7% | 5.9%
CC1(CCc2ccccc2)NC(=O)N(NC(=O)c2nn(-c3ccccc3)c(=O)c3ccccc23)C1=O (stereo not drawn) | -1.6% | 5.6%
COc1ccc(OC)c(NC(=O)c2c(-n3cnnn3)sc(C)c2C)c1 | -2.3% | 30.6%[activator]
Cc1cccc(-n2ccnc2SCC(=O)Nc2cccc3ccccc23)c1C | -11.3% | 0.9%

(cont.)
SMILES | 2A firefly | 2A Renilla
NS(=O)(=O)c1ccc(NC(=O)c2cc3ncccn3n2)cc1 | 14.1% | -7.8%
CCCCCCCOc1ccc(C(=O)Oc2ccc(C(C)=O)cc2)cc1 | 8.0% | 2.1%
COC(=O)c1c(NC(=O)c2nc(SCc3cccc(C)c3)ncc2Cl)sc2c1CCCC2 | -12.4% | -10.1%
C=CCNC(c1ccccc1)c1ccccc1 | -0.2% | -9.7%[1.06 µM]
COc1ccc(-c2nc(CSc3ccc(S(=O)(=O)N4CCCCC4)cn3)no2)cc1 | 24.7% | 2.2%
O=C(CCc1nc(CSc2n[nH]c(-c3ccccc3Cl)n2)no1)Nc1ccc2ccccc2c1 | 87.6%[activator] | -5.8%
CCc1nn(CC(=O)Nc2cccc(C)c2C)c(=O)c2cc3sccc3n12 | -11.9% | -13.4%
CCOc1ccc(NC(=O)Cc2cc(Cl)c3c(c2)OCCCO3)cc1S(=O)(=O)N1CCCC1 | -9.4% | 15.4%
CC(c1nnc(-c2cccs2)o1)N(C)Cc1ccc(Br)cc1 (stereo not drawn) | 61.0%[activator] | 23.6%
COC(=O)c1cc(-c2ccc(OC)cc2)nc2ccc(C)cc12 | 0.3% | 0.9%

New compounds follow
SMILES | 2A firefly | 2A Renilla
COc1ccccc1CCNC(=O)Cc1c(C)c2c(cc(C)c3c(C)c(C)oc32)oc1=O | -23.2% | -16.5%
Cc1ccc(C(=O)Nc2ccc(-c3nc4ccccc4s3)c(O)c2)c(C)c1 | 63.2%[activator] | -8.4%
CCCN(CCC)c1ccc(C2N=C(N)Nc3nc4ccccc4n32)cc1 (stereo not drawn) | 13.9% | -6.0%
Cc1cc(N2CCCC2)nc(Nc2ccc(NC(=O)c3c(F)cccc3F)cc2)n1 | 24.3% | 5.4%
Cc1cccc(Nc2nc(C(=O)N(C)C3CCCCC3)cs2)c1 | -17.9% | ?
COc1cccc(-c2cc(C(=O)N3CCCC3)c3ccccc3n2)c1 | 36.9%[activator] | 30.1%[activator]
CCOC(=O)c1c(NC(=O)/C(C#N)=C/c2ccc(OC)cc2)sc2c1CCC2 | 0.0% | 0.0%
CNC(=O)c1ccc(NC(=O)C2CCN(S(=O)(=O)c3ccc4c(c3)CCC4)CC2)cc1 | 15.8% | 13.5%
Cc1ccc(S(=O)(=O)N2CCN(CCNC(=O)c3ccccc3C(F)(F)F)CC2)cc1 | 3.8% | 0.0%
O=C(Cn1c(=O)oc2ccccc21)NCc1cccc(Cl)c1 | 27.3% | 9.2%

Rewritten with two lines to a compound: entries from further up
Values run as follows: 2A firefly	2A Renilla
- O=C(NCc1ccccc1)c1cccn1-c1nnc(N2CCCC2)s1
  -8.3%	?
- NC(=O)c1ncn([C@@H]2O[C@H](CO)[C@@H](O)[C@H]2O)n1
  -15.3%	-29.4%
- CCCCCCCOc1ccc(C(=O)Oc2ccc(C(C)=O)cc2)cc1
  8.0%	2.1%
- CCOC(=O)c1c(NC(=O)/C(C#N)=C/c2ccc(OC)cc2)sc2c1CCC2
  0.0%	0.0%
- Cc1cc(C)c(S(=O)(=O)n2cnc3ccccc32)cc1C
  ?	?

The listing continues.
SMILES | 2A firefly | 2A Renilla
Cc1nn(-c2ccccc2)c2sc(C(=O)Nc3ccccc3Br)cc12 | 89.3%[activator] | 63.4%[activator]
COc1cccc(NC(=O)C2CCN(c3nnc(-n4c(C)ccc4C)s3)CC2)c1 | 25.3% | -4.6%
CC(C)Oc1ccccc1C1C=C(C(=O)O)Nc2ncnn21 (stereo not drawn) | 21.8% | 9.8%
COc1ccc(-c2c(C)nn3c(N4CCN(c5cc(Cl)ccc5C)CC4)cc(C)nc23)cc1OC | -19.1% | -11.5%
Brc1cccc(/C=N/Nc2cccc3cccnc23)c1 | 151.8%[activator] | 10.2%
Cc1nc2nncn2c(NCc2ccc(Cl)cc2)c1C | ? | 1.41µM*
COc1ccc(-c2nc(CC(=O)NC3CCN(Cc4ccccc4)CC3)cs2)cc1 | -10.6% | -12.1%
O=C(NCc1ccccc1)c1ccc2c(c1)sc1nc(-c3ccc(F)cc3)cn12 | 95.6%[activator] | 20.5%
Cc1ccc(C(=O)Nc2ccc(CCC(=O)N(C)C)cc2)cc1 | 173.1%[activator] | 0.0%
CCCCN(C)c1nnc(NC(=O)Nc2cc(Cl)c(OC)cc2OC)s1 | 0.1% | -5.6%

Further records
SMILES | 2A firefly | 2A Renilla
O=C(NCCN1CCOCC1)c1cc(-c2cccs2)nc2ccccc12 | 0.0% | 31.5%[activator]
Cc1ccc(-n2nc(C(=O)N3CCN(c4ccc(F)cc4)CC3)c(=O)n(C)c2=O)cc1 | -9.3% | -9.8%
CCOc1ccc(-c2cc(=O)c3ccc(NC(=O)c4ccccc4C)cc3o2)cc1 | 8.9% | 7.7%
Cc1ccc(S(=O)(=O)Nc2nc3ccccc3nc2N2CCN(c3ccccc3)CC2)cc1 | 0.0% | -5.1%
COc1cccc(Nc2nc3c(S(=O)(=O)c4ccccc4)nnn3c3ccsc23)c1 | 35.2% | 25.4%
O=C(CSc1nnc2ccccn12)c1ccc(F)cc1 | 172.0%[activator] | 3.0%
O[C@@H](COc1cccc2ncccc12)CN1CCN(C2c3ccccc3[C@@H]3[C@H](c4ccccc42)C3(F)F)CC1 (stereo partly drawn) | -12.7%[11.5 µM] | 25.1µM*
Cc1cc(C)c2c(=O)cc(CSc3nnc(-c4ccccc4)n3C)[nH]c2c1 | -11.9% | 12.4%
COc1ccc(CCNC(=O)c2cnn(-c3ccc(F)cc3)c2C2CCN(C(=O)OC(C)(C)C)CC2)c(OC)c1 | -17.1% | 20.5%
Cc1ccc(-n2nnnc2SCC(=O)Nc2cc(C)nn2-c2ccccc2)cc1 | 3.9% | 11.7%

(cont.)
SMILES | 2A firefly | 2A Renilla
O=c1c2c3c(sc2n(Cc2cc(=O)n4ccccc4n2)c(=O)n1-c1ccccc1)CCC3 | -6.9% | -11.5%
CC1CCN(CCCC(=O)c2ccc(F)cc2)CC1 | -18.4%[11.5 µM] | -8.3%
C[C@H]1C(=O)O[C@@H]2CCN3CC=C(COC(=O)[C@](C)(O)[C@]1(C)O)[C@H]23 | -21.4% | -17.6%
COc1cc(C=O)cc2c1OCO2 | -4.4% | 5.4%
COc1ccc(OC)c(C2CC(=O)Nc3c2c(=O)[nH]c2nc4ccccc4n32)c1 (stereo not drawn) | -8.6%&-16.6% | -9.2%&-9.8%
CCn1cc(/C=C(\NC(=O)c2ccc(OC)c(OC)c2)C(=O)NCCCn2ccnc2)c2ccccc21 | -11.7% | -14.6%
CSc1nnc(NC(=O)c2cc(=O)c3cc(Cl)cc(Cl)c3o2)s1 | -5.8% | -7.9%
COc1ccccc1NC(=O)c1sc2nc(N3CCOCC3)c3c(c2c1N)CC(C)(C)OC3 | -16.4% | -2.2%
Cc1cc(C)c2c(=O)cc(CSCC(=O)Nc3nnc(C)s3)[nH]c2c1 | -2.4% | -10.7%
CCn1c(CN2CCC(C)CC2)nc2cc(NC(=O)c3ccccc3[N+](=O)[O-])ccc21 | 0.0% | 8.5%

Overlap with the part before: 3 entries, then new ones.
SMILES | 2A firefly | 2A Renilla
COc1ccccc1NC(=O)c1sc2nc(N3CCOCC3)c3c(c2c1N)CC(C)(C)OC3 | -16.4% | -2.2%
Cc1cc(C)c2c(=O)cc(CSCC(=O)Nc3nnc(C)s3)[nH]c2c1 | -2.4% | -10.7%
CCn1c(CN2CCC(C)CC2)nc2cc(NC(=O)c3ccccc3[N+](=O)[O-])ccc21 | 0.0% | 8.5%
Cc1cc(OCC(=O)Nc2ccc(C(=O)OC3CCCCC3)cc2)ccc1Cl | -13.8% | -16.8%
Cc1c2c(nc3ccccc13)CCSC2 | 15.6% | 17.4%
COc1cc(OC)c(C2=CCN(C(=O)COc3ccc(Cl)cc3C)CC2)c(OC)c1 | -4.6% | 6.8%
Cc1ccc(C(=O)N/C(=C\c2cn(S(=O)(=O)N(C)C)c3ccccc23)C(=O)NCCCn2ccnc2)cc1 | -1.3% | 56.6%[activator]
COc1ccc(OC)c(NC(=O)Cn2c(CCC(=O)O)ccc2-c2ccccc2)c1 | -10.3% | -4.3%
CC(NC(=O)C1CCN(S(=O)(=O)c2ccc3c(c2)oc(=O)n3C)CC1)c1ccccc1 (stereo not drawn) | -12.7% | -3.9%
COC(=O)C1CCN(Cc2cc(=O)oc3cc(C)c(Cl)cc23)CC1 | 3.2% | -0.7%
Cc1c(C(=O)COC(=O)CCCNS(=O)(=O)c2cccs2)oc2ccccc12 | 9.2% | 3.2%
N#Cc1nc(COc2ccc(Cl)cc2)oc1N1CCCCCC1 | 12.2% | -8.2%
CN(C(=O)Cc1cccc2cccnc12)C1CCS(=O)(=O)C1 (stereo not drawn) | 4.0% | -12.9%

(further entries)
SMILES | 2A firefly | 2A Renilla
CCCn1nc(C(=O)N2CCN(c3ccccn3)CC2)c2ccccc2c1=O | 44.1%[activator] | 61.7%[activator]
COc1cc(OC)cc(C(=O)NCCc2csc3nc(-c4ccccc4F)nn23)c1 | -8.6% | 11.0%
CCOCCCNCc1ccc(F)cc1Cl | -3.0% | -3.9%
c1ccc(-c2nnc(CN3CCN(c4ccccc4)CC3)o2)cc1 | -13.3% | -1.0%
O=C(CCS(=O)(=O)c1ccccc1)N(Cc1cccnc1)c1nc2c(F)cccc2s1 | -16.2% | -13.2%
Cc1c(OCC(=O)Nc2ccc(Cl)cc2)c(=O)ccn1CCO | 0.0% | 8.9%
Cc1ccccc1C(=O)NCCC(=O)NCc1coc(-c2cccs2)n1 | 33.4%[activator] | 28.8%
CCOc1ccc(C(=O)Nc2ccc(-c3nc4cc(C(C)C)ccc4o3)cc2)cc1Cl | 66.1%[activator] | 7.2%
O=C(Nc1ccccc1)c1cccc(N2CCCS2(=O)=O)c1 | 60.2%[activator] | ?
Cc1ccc(Cn2cc(S(=O)(=O)c3cccc(Cl)c3)c(=O)c3cc(F)c(N4CCCCC4)cc32)cc1 | -14.9% | -6.2%
CCCCCn1nc(C(=O)N2CCN(c3ccc(C(C)=O)cc3)CC2)c2ccccc2c1=O | -2.8% | 45.9%[activator]
